Compound activity as filed in PubChem.
gsp antag: antagonists of gsp mutant (McCune-Albright syndrome) | gsp-mutant cells, cAMP HTRF, 30 min; control for the full effect not named in the record | Potency, µM (highest dose often 76.9 µM), inactives show at the top dose activity change, negative = inhibition, usual class: inhibitors | 0.4% of 340,000 active | AID 624288; active = falling curve of any shape with a large fitted effect; inconclusive = falling curve, mostly with a smaller effect; inactive = flat or rising curve; cell line not stated here;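 note: intracellular cAMP measured with PDE inhibitor Ro 20-1724 present during compound exposure; potency is the fitted concentration of half-maximal effect; % is set by controls: 0 for no effect and ±100 for the full control effect; nearly all actives have a fitted effect of over 65% in size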
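HTRF cAMP measurement after 30 min RT detection following 30 min, 37C compound treatment alongside […] (added as 300 uM solution) in G418-selected cells seeded at 2000/well and grown 16–24 h.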
gsp ag: gsp mutant agonism | 0.13% of 340,000 active | AID 624287 | Potency, µM (titrated, usually from 76.9 µM), without a hit: at the top dose activation (cAMP increase), usual class: activators | gsp mutant cells, cAMP HTRF, 30 min; control for the full effect not named in the record; active = well fitted activation curve with a large enough effect; inconclusive = small, poorly fitted or top-dose-only effect, or another doubt; inactive = no such curve, though single readings can be large or run the other way; cell line not stated here;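 note: phosphodiesterase inhibitor Ro 20-1724 added with compounds to block cAMP breakdown; potency is the fitted concentration of half-maximal effect; nearly all actives have a fitted effect of over 60% in size; about a fifth of the inactives were tested at one dose only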
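Cells stably selected in G418 were plated at 2000/well, grown 16-24 hr, then given compounds in DMSO with the PDE inhibitor […] (300 uM solution added) for 30 min at 37C; cAMP was read by HTRF.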
Sfp PPTase inh: blocks B. subtilis Sfp PPTase activity | Biochemical Sfp PPTase activity, qHTS | Potency, µM, inactives show max response, negative = inhibition, hits mostly inhibitors | 3.5% of 310,000 active | AID 1490; active = well fitted inhibition curve with a large enough effect; inconclusive = small, poorly fitted or top-dose-only effect, or another doubt; inactive = no such curve, though single readings can be large or run the other way;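 note: the enzyme is Sfp with the accession as filed and its product quenches rhodamine fluorescence; potency is the fitted concentration of half-maximal effect; 0% = enzyme reaction without inhibitor and -100% = no enzyme wells; top concentration of the series not given in the record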
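Sfp 15 nM + cpd, 15 min RT; start w/ rhodamine-CoA 5 uM, BHQ-2-YbbR 12.5 uM (final); 50 mM Hepes pH 7.6, 10 mM MgCl2, 0.01% NP-40, 0.01% BSA; read 525/598 nm at 0 and 30 min.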
D2 agonist: activates the human D2 dopamine receptor. 0.084% of 360,000 active. DiscoveRx PathHunter D2 beta-arrestin, luminescence, 90 min; 100% = 57 uM dopamine signal. AID 624465. activation, % (concentration not given with the values). P14416; in the data active = activation above about 40%; inconclusive = about 15% to 40%; inactive = below about 15%; note: compound concentration not given in the record; the text of the record calls up to 30% inactive
Target sequence (P14416 whole entry, looked up): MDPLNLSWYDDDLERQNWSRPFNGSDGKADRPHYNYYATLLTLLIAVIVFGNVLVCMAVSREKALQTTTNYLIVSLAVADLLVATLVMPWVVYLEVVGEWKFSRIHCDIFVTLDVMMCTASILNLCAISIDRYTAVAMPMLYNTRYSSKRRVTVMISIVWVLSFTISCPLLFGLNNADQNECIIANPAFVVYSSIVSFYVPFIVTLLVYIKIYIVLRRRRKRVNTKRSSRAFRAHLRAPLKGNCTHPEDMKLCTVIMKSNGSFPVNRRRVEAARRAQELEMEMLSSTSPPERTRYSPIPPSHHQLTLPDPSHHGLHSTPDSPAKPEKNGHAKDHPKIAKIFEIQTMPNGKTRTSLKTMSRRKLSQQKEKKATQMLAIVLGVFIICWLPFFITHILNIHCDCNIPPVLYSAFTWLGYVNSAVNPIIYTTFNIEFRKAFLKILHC
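Agonist mode: compounds alone added to overnight-plated D2 PathHunter cells for 90 min at 37 C, with 57 uM final dopamine (EC100) defining full response. Beta-arrestin recruitment detected by chemiluminescent reagent, read after 1 h at ambient temperature.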
Menin MLL FP FL: inhibitors of human menin-MLL interaction, wild-type MLL peptide; Fluorescence polarization, fluorescein-MLL peptide displacement from menin; FP activity change, % at 61.4 µM; 290,000 tested, under 10 active; AID 1766; inconclusive = falling polarisation curve, or a change in total fluorescence; inactive = total fluorescence flat and polarisation flat or rising; no compound was filed as active; the % refers to the polarisation; negative = inhibition;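 note: % of control where 0% means no effect; inhibitors lower the polarisation; unlabelled MLL peptide was the positive control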
PINK1 modulator: changes PINK1 expression; PINK1 immunofluorescence, high-content cytometry, 24 h; Potency, µM (highest dose often 76.6 µM), without a hit: at the top dose activation (PINK1 increase), hits mostly activators; 0.2% of 410,000 active; AID 624263; active = well fitted activation curve with a large enough effect; inconclusive = small, poorly fitted or top-dose-only effect; inactive = flat fitted curve, though single readings scatter; cell line not stated here;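 note: potency is the fitted concentration of half-maximal effect; % of control where 0% means no effect; nearly all actives have a fitted effect of over 65% in size; a mitochondrial uncoupler was the plate control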
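Stable cell line treated 24 h with compounds at 5 concentrations (CCCP controls), then fixed and immunostained for PINK1 plus nuclear and cell stains; PINK1 immunofluorescence quantified by laser-scanning microplate cytometry.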
ClpP mod: qHTS Assay for Activators of ClpP. ATP-dependent Clp protease proteolytic subunit (Bacillus subtilis (strain 168)), P80244. purified B. subtilis ClpP, FRET peptide cleavage, 20 min. 1.9% of 340,000 active. Potency, µM (top dose mostly 57.5 µM), inactives show top-dose activity change, negative = active; active = well fitted falling curve with a large enough effect; inconclusive = small, poorly fitted or top-dose-only effect; inactive = no such curve, though single readings can be large or run the other way; note: potency is the fitted concentration of half-maximal effect; the source files actives as falling curves though it sought activators and does not explain the sign; nearly all actives have a fitted effect of over 65% in size; many hits overshoot -100%
Target sequence (P80244 whole entry, looked up): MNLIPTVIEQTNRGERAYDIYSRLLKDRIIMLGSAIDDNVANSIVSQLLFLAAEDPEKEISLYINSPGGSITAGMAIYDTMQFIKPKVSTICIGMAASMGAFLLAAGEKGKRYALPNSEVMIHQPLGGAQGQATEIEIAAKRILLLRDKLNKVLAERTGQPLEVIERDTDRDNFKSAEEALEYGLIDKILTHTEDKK
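Purified B. subtilis ClpP, 10 microg/mL final in Tris/HCl pH8 with KCl, BSA, glycerol and Tween-20, cleaved an Abz/nitrotyrosine-quenched decapeptide. Fluorescence (ex 320, em 430) was read at 0 and 20 min at room temperature. Delta was normalized to 5.8 microM ADEP and DMSO/no-enzyme controls.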
* = called active by the depositor; [ ] = another dose, or the depositor's remark.

Results for COc1cc(OC)cc(C(=O)NCc2n[nH]c(=S)n2-c2ccccc2OC)c1 ?
gsp antag: 2.1%; gsp ag: -8.0%; Sfp PPTase inh: inconclusive; D2 agonist: 0.5; Menin MLL FP FL: -1.0; PINK1 modulator: 1.3%[38.3 µM]; ClpP mod: 1.7%

How did O=C(COc1ccc(Cl)cc1Br)Nc1cccc(S(=O)(=O)N2CCCC2)c1 do in these assays?
gsp antag: -5.3%; gsp ag: -3.2%; D2 agonist: -0.6; PINK1 modulator: 3.4%; ClpP mod: 1.3%

Results for O=S(=O)(NCc1ccccc1)c1cccc2nonc12 ?
gsp antag: 0.4%; gsp ag: -14.8%; Sfp PPTase inh: -0.6%; D2 agonist: -1.4; Menin MLL FP FL: -0.3; PINK1 modulator: 2.4%[38.3 µM]; ClpP mod: 1.0%

How did CCc1nnc(NS(=O)(=O)c2ccc(N=Cc3c(C)[nH]n(-c4cccc(Cl)c4)c3=O)cc2)s1 do in these assays?
gsp antag: inconclusive; gsp ag: 5.5%[15.4 µM]; Sfp PPTase inh: -23.0%; D2 agonist: 6.7; Menin MLL FP FL: -2.9; PINK1 modulator: 5.7%; ClpP mod: -1.7%

How did CCCC(N)CCCCCC(=O)O (stereo unspecified) do in these assays?
gsp antag: 10.9%; gsp ag: 10.4%; Sfp PPTase inh: 16.1%; D2 agonist: -3.2; Menin MLL FP FL: 3.7; PINK1 modulator: 2.5%; ClpP mod: -1.0%

Results for Cc1cc(OCC(=O)Nc2ccc3oc(=O)ccc3c2)ccc1Cl ?
gsp antag: 2.9%; gsp ag: -8.0%[15.4 µM]; Sfp PPTase inh: -12.9%; D2 agonist: -2.5; Menin MLL FP FL: -2.7; PINK1 modulator: -0.4%

What do the screens show for `S=C(NCC1CCCO1)Nc1ccccc1Cl` (stereo unspecified)?
gsp antag: -10.4%; gsp ag: -31.7%[inhibitor]; Sfp PPTase inh: 9.3%; D2 agonist: 0.8; Menin MLL FP FL: 3.7; PINK1 modulator: 1.8%; ClpP mod: 0.8%

Results for OCCOCCn1c(C(CO)Nc2nc(-c3cccc(Br)c3)cs2)nc2ccccc21 (stereo unspecified) ?
gsp antag: 0.5%; gsp ag: -8.3%; D2 agonist: 0.4; PINK1 modulator: 0.8%; ClpP mod: -5.3%

What do the screens show for `CC1(C)Oc2ccc3ccc(=O)oc3c2-c2cn[nH]c21`?
gsp antag: 6.4%; gsp ag: 0.0%; Sfp PPTase inh: -7.4%; D2 agonist: -0.8; Menin MLL FP FL: 3.5; PINK1 modulator: 1.3%; ClpP mod: -3.4%

Results for Cc1cc(Cl)ccc1OCCCC(=O)Nc1cccc(-n2cnnn2)c1 ?
gsp antag: -26.7%; gsp ag: 10.6%; Sfp PPTase inh: 1.3%; D2 agonist: 1.0; PINK1 modulator: 4.2%; ClpP mod: -1.4%

How did Cc1nnc(SCC(=O)Nc2ccc(C(N)=O)cc2)n1-c1ccccc1 do in these assays?
gsp antag: 14.4%; gsp ag: -32.6%; Sfp PPTase inh: -2.7%; D2 agonist: -2.7; Menin MLL FP FL: -2.5; PINK1 modulator: -0.8%

Results for CC(C)C(Nc1ncnc2c1oc1ccccc12)C(=O)O (stereo unspecified) ?
gsp antag: 17.7%; gsp ag: 3.8%[15.4 µM]; Sfp PPTase inh: 4.6%; D2 agonist: -7.2; Menin MLL FP FL: 0.5; PINK1 modulator: 2.7%

How did CC1=C(C(=O)OCc2ccc(C)cc2)C(c2ccc(O)c([N+](=O)[O-])c2)NC(=O)N1 (stereo unspecified) do in these assays?
gsp antag: -12.7%; gsp ag: -5.5%; Sfp PPTase inh: 31.4%[activator]; D2 agonist: -2.3; Menin MLL FP FL: 1.9; PINK1 modulator: 8.3%

How did O=c1c2ccccc2sn1-c1ccc(Cl)cc1Cl do in these assays?
gsp ag: 2.5%; D2 agonist: -6.5; PINK1 modulator: 1.5%; ClpP mod: 1.4%

Results for O=C(NCC(=O)N(c1ccc2c(c1)OCO2)C(C(=O)NC1CCCC1)c1ccncc1)c1ccco1 (stereo unspecified) ?
gsp antag: -3.7%; gsp ag: 15.8%; Sfp PPTase inh: 12.3%; D2 agonist: 8.7; Menin MLL FP FL: 2.7; PINK1 modulator: -0.8%; ClpP mod: -1.7%

Results for CC(=O)Nc1cccc(NC(=O)C2CC(=O)N(CCc3ccc(F)cc3)C2)c1 (stereo unspecified) ?
gsp antag: 6.6%; gsp ag: -1.7%; Sfp PPTase inh: 0.0%; D2 agonist: -4.3; Menin MLL FP FL: -1.2; PINK1 modulator: 9.1%

What do the screens show for `COc1ccc(OC)c(/C=N/NC(=O)CC(=O)NC2CCCCC2)c1`?
gsp antag: -5.5%; gsp ag: 5.5%[15.4 µM]; Sfp PPTase inh: 14.4%; D2 agonist: -3.4; Menin MLL FP FL: 3.2; PINK1 modulator: 1.2%

What do the screens show for `CC(C)(C)c1ccc(C(=O)N/C(=C\c2ccco2)C(=O)Nc2ccccc2C(=O)O)cc1`?
gsp antag: inconclusive; gsp ag: -2.5%[15.4 µM]; Sfp PPTase inh: 50.1µM*; D2 agonist: 3.6; Menin MLL FP FL: 11.5; PINK1 modulator: 0.1%

Results for CCOC(=O)C1C(C)=CC(=O)CC1c1ccco1 (stereo unspecified) ?
gsp antag: 4.8%; gsp ag: inconclusive; Sfp PPTase inh: 4.7%; D2 agonist: -2.5; Menin MLL FP FL: -3.0; PINK1 modulator: 2.5%; ClpP mod: -0.1%

How did O=C(NCCc1ccccc1F)C1CCCN(c2nc3ccccc3s2)C1 (stereo unspecified) do in these assays?
gsp antag: -13.9%; gsp ag: -41.4%[inhibitor]; Sfp PPTase inh: 4.6%; D2 agonist: 0.0; Menin MLL FP FL: 3.7; PINK1 modulator: -0.5%

How did CCOc1ccccc1NC(=O)CCn1cccc1 do in these assays?
gsp antag: 5.9%; gsp ag: -3.8%; Sfp PPTase inh: 17.9%; D2 agonist: 2.2; Menin MLL FP FL: -5.6; PINK1 modulator: -0.7%; ClpP mod: -3.8%

What do the screens show for `CC1CCCN(C(=S)Nc2ccc(F)cc2)C1` (stereo unspecified)?
gsp antag: 16.0%; gsp ag: -26.0%[15.4 µM]; Sfp PPTase inh: 7.9%; D2 agonist: -2.9; Menin MLL FP FL: 0.0; PINK1 modulator: -0.5%

What do the screens show for `COC(=O)c1ccc(CN2CCCC(C(=O)Nc3cccc(-n4cccn4)c3)C2)cc1` (stereo unspecified)?
gsp antag: -8.7%; gsp ag: 21.5%; Sfp PPTase inh: 11.7%; D2 agonist: 4.0; PINK1 modulator: -0.2%; ClpP mod: 0.5%

What do the screens show for `Nc1nc(Nc2ccccc2)sc1C(=O)c1ccccc1`?
gsp antag: 2.2%; gsp ag: -4.5%[15.4 µM]; Sfp PPTase inh: -4.0%; D2 agonist: 0.0; Menin MLL FP FL: -0.2; PINK1 modulator: -1.9%

How did Cc1c(-n2c(O)c(C3=c4ccccc4=NC3=O)sc2=S)c(=O)n(-c2ccccc2)n1C do in these assays?
gsp antag: 13.8%; gsp ag: 1.8%[15.4 µM]; Sfp PPTase inh: inconclusive; D2 agonist: 8.7; Menin MLL FP FL: 4.6; PINK1 modulator: 18.3%

What do the screens show for `Cc1cc(C)c2c(c1)/C(=N/NS(=O)(=O)c1ccc(Br)cc1)CCC2`?
gsp antag: 4.6%; gsp ag: 6.5%; Sfp PPTase inh: 1.6%; D2 agonist: -3.3; Menin MLL FP FL: 2.8; PINK1 modulator: 2.8%; ClpP mod: -0.2%

Results for CC(C)NC(=O)NC(=O)CSc1ccc(S(=O)(=O)N2CCCC2)cn1 ?
gsp antag: 11.6%; gsp ag: 2.3%[15.4 µM]; D2 agonist: -2.7; PINK1 modulator: -0.7%; ClpP mod: 0.4%

Results for O=C(COc1cccc(Cl)c1Cl)Nc1ccc2c(c1)CCC2 ?
gsp antag: 5.2%; gsp ag: 1.4%[15.4 µM]; Sfp PPTase inh: inconclusive; D2 agonist: -3.6; Menin MLL FP FL: 7.7; PINK1 modulator: 8.9%; ClpP mod: 0.5%

How did CC1(C)Oc2ccc(C(=O)Nc3ccccc3F)cc2N(CC(=O)N2CCOCC2)C1=O do in these assays?
gsp antag: -8.0%; gsp ag: -2.8%; Sfp PPTase inh: 26.8%; D2 agonist: -5.5; Menin MLL FP FL: 0.4; PINK1 modulator: -0.1%

Results for CCOC(=O)NNc1ccc(C(F)(F)F)cn1 ?
gsp antag: 16.8%; gsp ag: 1.4%[15.4 µM]; Sfp PPTase inh: inconclusive; D2 agonist: -4.8; Menin MLL FP FL: 0.9; PINK1 modulator: 1.2%

Results for COc1cccc2oc3cc(C#Cc4ccccn4)ccc3c(=O)c12 ?
gsp antag: -12.7%; gsp ag: -1.8%; Sfp PPTase inh: 39.8µM*; D2 agonist: -0.1; Menin MLL FP FL: 0.5; PINK1 modulator: -0.6%; ClpP mod: -11.1%

What do the screens show for `COc1ccc(C2C(C#N)=C(N)Oc3c2ccc2cccnc32)cc1OC` (stereo unspecified)?
gsp antag: 2.1%; gsp ag: -11.8%; Sfp PPTase inh: 3.6%; D2 agonist: 6.8; Menin MLL FP FL: 1.5; PINK1 modulator: 2.7%

What do the screens show for `CC(=O)N1C(C(=O)O)CSC1c1cccc(C)c1` (stereo unspecified)?
gsp antag: 5.2%; gsp ag: 1.0%; Sfp PPTase inh: 12.6%; D2 agonist: -0.5; Menin MLL FP FL: -0.6; PINK1 modulator: 4.0%; ClpP mod: -1.4%

How did O=C(Nc1cccc(OC(F)(F)F)c1)C1Cc2c(-c3ccc(Cl)cc3)ccnc2O1 (stereo unspecified) do in these assays?
D2 agonist: 4.7; PINK1 modulator: inconclusive; ClpP mod: inconclusive

Results for CCCCN1C(=O)C(NC(C)=O)c2cc(Br)ccc21 (stereo unspecified) ?
gsp antag: -5.8%; gsp ag: 23.7%; Sfp PPTase inh: -0.7%; D2 agonist: -3.4; Menin MLL FP FL: 2.1; PINK1 modulator: 1.4%; ClpP mod: -8.3%

How did COCCOC(=O)C1=C(C)NC(=O)NC1c1ccc(OC(=O)c2ccco2)c(OC)c1 (stereo unspecified) do in these assays?
gsp antag: 8.0%; gsp ag: 0.0%; Sfp PPTase inh: 2.6%; D2 agonist: -1.7; Menin MLL FP FL: 1.7; PINK1 modulator: 2.4%; ClpP mod: -2.4%

How did O=C(NCCC(=O)N1CCCC(C(F)(F)F)C1)c1ccccc1Cl (stereo unspecified) do in these assays?
gsp antag: 8.2%; gsp ag: inconclusive; Sfp PPTase inh: 22.9%; D2 agonist: 2.4; PINK1 modulator: -1.2%; ClpP mod: 3.7%
